Screening data from PubChem.
Marburg entry inh: Marburg virus entry inhibition; Marburg virus pseudotyped entry inhibition, cell reporter; control for the full effect not named in the record; about a third of the inactives were read at about 46 µM; Potency, µM (series often up to 37.8 µM), inactives show at the top dose activity change, negative = inhibition, hits mostly inhibitors; actives 1.8% (n = 300,000); AID 540276; active = well fitted inhibition curve with a large enough effect; inconclusive = small, poorly fitted or top-dose-only effect, or effect the other way; inactive = flat fitted curve, though single readings scatter; tested in HEK293 cells; about a fifth of its hits are not listed in these tables; note: % is set by controls: 0 for no effect and ±100 for the full control effect; luciferase read-out
NS1 inh: inhibitors of influenza NS1 protein function; S. cerevisiae slowed by influenza A NS1, growth recovery by OD600; Potency, µM (doses to about 46.1 µM), for the others: top-dose activity, positive = more growth; actives 0.4% (n = 270,000); note: actives are rising curves; nearly all actives have a fitted effect of over 50% in size
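Compounds were scored for reversing the slow growth caused by influenza A NS1 in S. cerevisiae, measured by optical density at 600 nm. Assay medium contained 2% galactose at pH 6.0; NS1-free yeast of the same strain were the positive control.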
Lassa entry inh: blocks Lassa virus binding to or entry into cells. Lassa virus pseudotype entry inhibition, cell reporter; control for the full effect not named in the record. Potency, µM (highest dose often 37.9 µM), for inactives: at the highest dose activity change, negative = inhibition, hits mostly inhibitors. actives 1.2% (n = 300,000). AID 540256; active means well fitted inhibition curve with a large enough effect; inconclusive means small, poorly fitted or top-dose-only effect, or effect the other way; inactive means flat fitted curve, though single readings scatter; tested in HEK293 cells; note: % is set by controls: 0 for no effect and ±100 for the full control effect; nearly all actives have a fitted effect of over 50% in size; luciferase read-out
SARS PLP yeast: SARS-CoV PLP inhibition in yeast. S. cerevisiae expressing SARS-CoV PLpro, growth rescue; control for the full effect not named in the record. Potency, µM (highest dose often 32.9 µM), inactives show at the top dose activity, positive = growth rescue. actives 0.19% (n = 330,000). AID 485353; note: 0% is about no effect; nearly all actives have a fitted effect of over 55% in size; growth read by luminescence after 48 h
Cruzain inh Det: cruzain (T. cruzi) inhibition with detergent; Potency, µM, without a hit: max response, negative = inhibition, usual class: inhibitors; actives 0.43% (n = 200,000); purified cruzain, Z-FR-AMC fluorescence, 0.01% Triton; active = well fitted curve in the direction sought with a large enough effect; inconclusive = small, poorly fitted or top-dose-only effect, or another doubt; inactive = no such curve, though single readings can be large; an effect the other way counts as inactive or inconclusive;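 note: plate controls were neutral wells for no effect and buffer without enzyme for full effect; nearly all actives have a fitted effect of over 40% in size; top concentration of the series not given in the record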
Target sequence (P25779 123-467 limits assumed): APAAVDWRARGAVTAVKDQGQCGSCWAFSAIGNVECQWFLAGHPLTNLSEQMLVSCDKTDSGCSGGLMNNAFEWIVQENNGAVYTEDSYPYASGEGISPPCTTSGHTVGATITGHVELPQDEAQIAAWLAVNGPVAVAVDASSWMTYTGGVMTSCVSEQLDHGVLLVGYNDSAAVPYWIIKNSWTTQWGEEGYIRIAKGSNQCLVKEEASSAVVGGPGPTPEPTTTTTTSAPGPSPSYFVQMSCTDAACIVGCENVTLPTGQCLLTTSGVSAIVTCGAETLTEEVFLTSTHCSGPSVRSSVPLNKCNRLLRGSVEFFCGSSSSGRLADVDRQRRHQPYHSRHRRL
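Purified cruzain (1.5 nM final) was preincubated with compounds for 15 min at room temperature in 100 mM sodium acetate pH 5.5, 5 mM DTT, 0.01% Triton X-100. Reaction started with 2 uM Z-FR-AMC; AMC fluorescence change over 60 s gave activity.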
2A StopGo: FMDV 2A StopGo reporter, luciferase signal | human cells with a luciferase reporter of 2A StopGo recoding; control for the full effect not named in the record | Potency, µM (top dose mostly 57.9 µM), inactives show at the highest dose signal change, negative = less light | actives 1.2% (n = 410,000); active = well fitted falling curve with a large enough effect; inconclusive = small, poorly fitted or top-dose-only effect; inactive = no such curve, though single readings can be large or run the other way; tested in HEK293T cells; note: % is set by controls: 0 for no effect and ±100 for the full control effect; nearly all actives have a fitted effect of over 45% in size; luciferase light after 4 h
Cruzain noTriton: inhibitors of Trypanosoma cruzi cruzain without detergent; AID 1476; purified cruzain, Z-FR-AMC fluorescence, no detergent; Potency, µM, for inactives: max response, negative = inhibition, actives largely listed as inhibitors; P25779; actives 2.3% (n = 200,000); active = well fitted curve in the direction sought with a large enough effect; inconclusive = small, poorly fitted or top-dose-only effect, or another doubt; inactive = no such curve, though single readings can be large; an effect the other way counts as inactive or inconclusive;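 note: plate controls were enzyme without inhibitor for no effect and buffer without enzyme for full effect; nearly all actives have a fitted effect of over 40% in size; top concentration of the series not given in the record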
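Detergent-free condition (0.00005% Triton X-100) in acetate buffer pH 5.5 with DTT. 1.5 nM enzyme and compound were pre-mixed 15 min, then 2 uM Z-FR-AMC substrate added; reaction progress from fluorescence change between first and third reads (60 s).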
RE007 growth inh: less growth of the S. pombe RE007 Vpr strain. actives 0.21% (n = 360,000). S. pombe RE007 Vpr strain, BacTiter-Glo ATP luminescence, 24 h; control for the full effect not named in the record. Potency, µM (top dose mostly 92.2 µM), for inactives: at the top dose activity change, negative = less growth; active = well fitted falling curve with a large enough effect; inconclusive = small, poorly fitted or top-dose-only effect; inactive = no such curve, though single readings can be large or run the other way;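 note: % is set by controls: 0 for no effect and ±100 for the full control effect; nearly all actives have a fitted effect of over 50% in size; the assay follows cell death caused by Vpr and the record does not say whether a fall means rescue or toxicity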
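Fission yeast RE007 carrying one integrated HIV-1 vpr copy, seeded at OD 0.01 in PMG+AL medium with 23 nL pinned compound. Grown 24 h at 30 degrees; viability read by BacTiter-Glo luminescence after 5 min.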
Numbers without * were called inactive; ? = inconclusive; . = not tested or not shown; [ ] = remark or other dose. Unless noted, calls come from the whole dose curve; as a rule, active means well fitted rising curve with a large enough effect; inconclusive means small, poorly fitted or top-dose-only effect; inactive means no such curve, though single readings can be large or run the other way. Potency is the fitted concentration of half-maximal effect. Compounds as they come, and some 4.5% of all compounds hit somewhere here.

Values run as follows: Marburg entry inh, NS1 inh, Lassa entry inh, SARS PLP yeast, Cruzain inh Det, 2A StopGo, Cruzain noTriton, RE007 growth inh
- Cc1cc(C)c(S(=O)(=O)Nc2ccc(O)c(Sc3ncn[nH]3)c2)cc1C
    ., 12%, ., 2%, ., 39%[activator], ., -8%
- CCOc1cc(/C=C/C(=O)Nc2ccc(C(=O)NCCN(CC)CC)cc2)ccc1OCC(C)C
    18µM*, ., ?, -4%, ., ?, ., 2%
- CCOC(=O)c1c(C)[nH]c(C)c1S(=O)(=O)N1CCCC(C(=O)N2CCN(c3cccc(Cl)c3)CC2)C1 (stereo not given)
    ., ., ?, ., -3.4%, -29%, ?, .
- CCOC(=O)CON1C(=O)C(=O)N(OCC(=O)OCC)C2CCCCC21 (stereo not given)
    ., 0%, ., 1%, ., 3%, ., -3%
- Cc1nc2sc(C(=O)c3ccccc3)c(N)c2c(C)c1C
    7%[14.2 µM], ., 4%, -1%, ., 34%[activator], ., -6%
- Cn1c(=O)c(=O)n(C)c2cc(N3CCCC3)c(NC(=O)c3ccc(C(C)(C)C)cc3)cc21
    6%[46.1 µM], ., -15%[46.1 µM], ., -4.6%, -16%, -4%, .
- Cc1cccc(NC(=O)c2ccc3[nH]c(C)cc(=O)c3c2)c1
    -1%[46.1 µM], ., 14%[46.1 µM], ., -4.3%, 3%, 0%, .
- COc1ccc(NC(=O)c2cccc(N3CCCS3(=O)=O)c2)cc1OC
    ., ., ?, ., 1.9%, 3%, -10%, .
- Cc1cccc(CC2S/C(=N/c3cccc(C)n3)NC2=O)c1 (stereo not given)
    ?, -3%, ?, 0%, ., 0%, ., -2%
- CCc1ccc(NC(=O)CN2C(=O)CCSc3ccccc32)cc1
    0%[46.1 µM], ., ., ., -0.4%, -7%, -8%, .
- COc1ccccc1NC(=O)c1ccc(COc2ccccc2OC)o1
    2%, -36%, -25%, -9%, -8.8%, ., 1%, -6%
- O=C(NCc1ccc(F)cc1)C1CCCN(S(=O)(=O)c2cccc3nonc23)C1 (stereo not given)
    ., 11%, ., 5%, ., 8%, ., -7%
- CCOC(=O)C(C(=O)NCC1CCCO1)C1CCCCC1 (stereo not given)
    -1%, 4%, 4%, -5%, -1.8%, -5%, -2%, -5%
- COC(=O)c1cc2sccc2n1CC(=O)N(C)c1ccccc1
    ., -5%, ., 1%, ., -22%, ., 2%
- CC(=O)c1cccc(OCc2cc(C(=O)NC(C)Cc3cccnc3)no2)c1 (stereo not given)
    ., 2%, ., -5%, ., 1%, ., -3%
- O=C(NCCCN1CCCC1=O)c1cn(-c2ccccc2)nc1-c1ccccc1
    1%, 2%, 3%, 0%, ., 2%, ., -10%
- COCCOC1CCN(C(=O)C2CCC(=O)N(CCc3cccc(F)c3)C2)CC1 (stereo not given)
    9%[46.1 µM], 6%, 8%[46.1 µM], 0%, ., 21%, ., 6%
- COc1cccc(C2C(C#N)=C(N)N(N(C)C)C3=C2C(=O)CCC3)c1OC (stereo not given)
    ., 4%, ., -2%, ., -20%, ., 2%
- CCOC(=O)C1CCCN(C(=O)c2nn(-c3ccc(C)cc3)c(=O)c3c2c2ccccc2n3C)C1 (stereo not given)
    12%[46.1 µM], ., 19%[46.1 µM], ., -1.1%, ?, 0%, .
- O=[N+]([O-])c1cccc(S(=O)(=O)NCC2CCCO2)c1 (stereo not given)
    5%, -7%, -8%, ?, -1.0%, 18%, -10%, -17%
- COc1ccc(N2CCN(C(=O)c3cc(S(=O)(=O)N4CCCCCC4)ccc3OC)CC2)cc1
    -8%, ., -21%, 2%, ., -14%, ., -15%
- CC/C(C)=N/Nc1cccc([N+](=O)[O-])c1
    1%, 4%, 2%, -82%, -0.9%, -20%, -19%, 75%
- CCOC(=O)C1CCN(CC(O)COCc2ccccc2)CC1 (stereo not given)
    -7%[46.1 µM], -4%, 1%[46.1 µM], 1%, ., -8%, ., -7%
- O=C(Nc1cccc(C(F)(F)F)c1)C(Sc1cccc[n+]1[O-])c1ccccc1 (stereo not given)
    5%, -8%, 0%, -9%, -7.5%, -17%, 26%, 2%
- O=C(NC1CCN(Cc2ccccc2)CC1)C1CCN(c2nnc(-n3cccc3)s2)CC1
    ?, 4%, 16%, -2%, 0.6%, -30%, -14%, 3%
- O=C1CN(C(=O)COc2ccccc2)CCN1
    ., -32%, ., 4%, 4.1%, -4%, -9%, 6%
- O=C(COC(=O)Cc1ccc(Cl)cc1Cl)NCCC1=CCCCC1
    -4%[46.1 µM], 0%, 20%[46.1 µM], 9%, -4.3%, 15%, 5%, 8%
- Cc1cc(C(=O)COC(=O)/C=C/c2ccco2)c(C)n1C
    ?, ., -26%[46.1 µM], -17%, ., 33%, ., -2%
- COc1cc(NC(=O)C2CCCO2)c(C(=O)O)cc1OC (stereo not given)
    ?, 3%, -17%, 1%, 4.0%, 4%, 3%, -7%
- O=C(Cc1c(F)cccc1Cl)Nc1ccc(-n2cnnn2)cc1
    21%[46.1 µM], ., ., 3%, ., 3%, ., -9%
- C=CCN(CC=C)C(=O)CCc1nnc(CCc2c[nH]c3ccccc23)o1
    2%[46.1 µM], -1%, -21%, 0%, ., 38%[activator], ., 14%
- COc1ccc(NC(=O)COC(=O)Cc2cccs2)cc1OC
    -11%[46.1 µM], ., 12%, -2%, ., -15%, ., 14%
- O=C(CSc1nnc(COc2ccc(Cl)cc2)o1)Nc1ccc(N2CCOCC2)cc1
    8%, ., ?, 0%, ., -16%, ., 7%
- CCOc1ccccc1CNCCO
    22%, 6%, 15%, 2%, 8.8%, 9%, 13%, 19%
- CSCCC(NC(=O)c1ccccc1Cl)C(=O)NNC(=O)c1ccccc1O (stereo not given)
    -7%, ., -22%, 3%, ., -4%, ., -12%
- CCn1nnc(-c2ccccc2NC(=O)c2cc(OC)cc(OC)c2)n1
    -9%, -19%, 6%, 9%, -1.1%, ., ?, -7%
- Cc1[nH]c2ccccc2c1C(O)CN1CCN(c2cccc(C(F)(F)F)c2)CC1 (stereo not given)
    ?, ?, ?, -13%, -9.0%, ?, 8%, -3%
- CCN(Cc1ccccc1)S(=O)(=O)CCNC(=O)c1ccc(OC)cc1
    -20%[46.1 µM], ., -18%, -4%, ., 22%, ., -11%
- COc1ccc(N(Cc2cc3cccc(C)c3[nH]c2=O)C(=O)c2cccc(Cl)c2)cc1
    ?, ., ?, ., -7.2%, -5%, ?, .
- O=C(CSc1nc2ccccc2c(=O)[nH]1)Nc1ccccc1N1CCOCC1
    -1%[46.1 µM], -1%, 14%, 1%, ., -16%, ., -11%
- Fc1cc(F)c(F)c(SCCc2ccncc2)c1F
    -19%, -15%, -1%, ., 4.5%, -21%, -5%, ?
- Cc1cc(C)cc(OCCCn2c(CCNC(=O)C3CCCCC3)nc3ccccc32)c1
    -28%[46.1 µM], ., ?, ., 2µM*, 1%, 3%, .
- Cn1c(=O)c2c(ncn2CC(=O)OCc2ccccc2)n(C)c1=O
    9%, -7%, 10%, 1%, 2.3%, -15%, 1%, 2%
- O=C(c1cc(-c2ccccc2O)on1)N1CCCC1
    ., -51%, ., 0%, 2.9%, 48%[activator], ?, -6%
- CCC(=O)N1CCN(c2cc(NCC3CCCO3)c(F)cc2[N+](=O)[O-])CC1 (stereo not given)
    ?, ., 0%, 1%, ., 6%, ., -2%
- CC(NC(=O)Cn1nc(C(F)(F)F)c2c1CCC2)c1ccccc1 (stereo not given)
    6%, 10%, 0%, 5%, -0.6%, -24%, 13%, -25%
- Cc1onc(-c2ccccc2)c1C(=O)NCc1ccccn1
    -13%[46.1 µM], -10%, -14%, -1%, 3.0%, -12%, -3%, 17%
- CNC(=O)c1cccc(N2CCCC2=O)c1
    -3%[46.1 µM], 3%, -10%, 10%, 5.0%, 12%, -8%, 0%
- CCN1CCN(Cc2ccc(NC(=O)Nc3ccccc3)cc2)CC1
    ?, -15%, ?, -4%, -3.7%, -11%, 8%, -4%
- COCCNC(=O)c1cccc(OC2CCN(Cc3ccccc3OC(F)F)CC2)c1
    ., 14%, ., 1%, ., -18%, ., 7%

Additional entries:
Values run as follows: Marburg entry inh, NS1 inh, Lassa entry inh, SARS PLP yeast, Cruzain inh Det, 2A StopGo, Cruzain noTriton, RE007 growth inh
- CCOC(=O)C1=C(C)N(c2ccc(Cl)cc2)C(=O)NC1c1cccc([N+](=O)[O-])c1 (stereo not given)
    0%, -26%, ., -20%, -9.4%, ?, -22%, 14%
- CC(=O)c1cccc(NC(=O)N2CCCC2C(=O)NCCc2ccccc2)c1 (stereo not given)
    -1%[46.1 µM], 4%, -4%, 4%, 4.9%, -12%, 4%, 2%
- COc1ccc(CCNS(=O)(=O)c2ccccc2)cc1OC
    -8%[46.1 µM], -3%, 4%, 10%, -1.5%, 11%, 6%, 6%
- Cn1c(=O)c2c(ncn2CC(=O)NCc2cccnc2)n(C)c1=O
    6%, -3%, 12%, 10%, 3.6%, 3%, 0%, 2%
- O=C(/C=C/c1ccco1)Nc1ccc(N2CCCC2)cc1
    ?, 16%, ?, -19%, -3.8%, 40%[activator], ?, 3%
- COc1ccc(CNC(=O)CCn2nc(C)c3c(C)n(-c4ccccc4)nc3c2=O)cc1OC
    ., ., 3%[46.1 µM], ., -3.6%, -14%, 2%, .
- Cc1cc(C)cc(NC(=S)NC(=O)C2CC2)c1
    ., 7%, ., 15%, ., -16%, ., -15%
- CC(C)C(OC(=O)c1ccco1)C(=O)NCc1ccco1 (stereo not given)
    12%, 13%, 17%, ., -0.7%, 3%, 5%, 25%
- CCOC(=O)c1c(C)n(Cc2ccccc2)c2ccc(OCC(O)CN3C(=O)CNC3=O)cc12 (stereo not given)
    3%, 11%, -20%, -1%, -7.4%, -5%, ?, 3%
- CCOc1ccc(S(=O)(=O)Nc2ccc(Cl)cn2)c(C)c1C
    3%, -39%, 8%, -10%, -11%, 43%[activator], -17%, -7%
